Screens as filed in PubChem.
total CFTR = compounds raising F508del-CFTR protein level – cell-based, HeLa F508del-CFTR, immunofluorescence, viability, primary screen (AID 1224863); HeLa F508del-CFTR, immunofluorescence total CFTR, 24 h; by the record results were divided by relative cell number; some inactives read as strong as hits; calls, or highest fold increase where a dose series was run; 10,000 tested, 0.1% active; in the data nearly all actives have a first-pass fold increase above 1.5; a few of its hits are not listed in these tables;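 also: total CFTR protein by anti-CFTR immunofluorescence in fixed cells; first pass at 25 µM or 10 µg/mL by library and series up to twice that; 1 = untreated cells; first-pass hits also needed half or more of the cells alive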
total CFTR fold 25 µM = also measured in total CFTR; calls as there; fold increase; measured here: primary screen single dose 25 uM; library dosed in µM
total CFTR fold 10 ug/mL = second read-out of total CFTR, no call of its own (marks repeat the call); fold increase; measured here: primary screen 10 ug/mL
total CFTR viability 25 µM = second read-out of total CFTR, no call of its own (marks repeat the call); viability, %; measured here: primary viability 25 uM; library dosed in µM;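 0% = killed and 100% = untreated cells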
total CFTR viability 10 ug/mL = second read-out of total CFTR, no call of its own (marks repeat the call); viability, %; measured here: primary viability 10 ug/mL;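 0% = killed and 100% = untreated cells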
Numbers without * were called inactive; i = inactive; / = not tested or not shown; & = joins results of further samples. Not all compounds are listed. The share of hits here may be higher or lower than overall.

SMILES	total CFTR	total CFTR fold 10 ug/mL	total CFTR viability 10 ug/mL	others
OCc1c(OCC(F)(F)F)nc2sccn12	i	1.04	92.0
CN(Cc1cnn(-c2ccccc2)c1)C(=O)c1cnc2sccn2c1=O	1.15	1.5	94.0
CS(=O)(=O)c1ccc2nnn(OCCOc3cccc(Cl)c3)c2c1	i	0.87	76.0
Cc1ccccc1C(Sc1n[nH]c(C2CC2)n1)c1ccccc1 (centres undefined)	i	0.96	63.0
Nc1nc(Cl)nc2c1ncn2[C@H]1C[C@H](O)[C@@H](CO)O1	i	/	/	total CFTR fold 25 µM=1.29;total CFTR viability 25 µM=88.0
CCN1CCN(C(=O)NC(C(=O)N[C@@H]2C(=O)N3[C@@H]2SC(C)(C)[C@@H]3C(=O)O)c2ccccc2)C(=O)C1=O (some centres undefined)	i	/	/	total CFTR fold 25 µM=0.97;total CFTR viability 25 µM=94.0
c1cc(CNCc2ccnc(-n3cccn3)c2)c2c(c1)OCCCO2	i	0.96	93.0
C[C@H](NC(CCc1ccccc1)C(=O)O)C(=O)N1CCC[C@H]1C(=O)O (some centres undefined)	i	/	/	total CFTR fold 25 µM=1.27&1.06&1.02;total CFTR viability 25 µM=89.0&89.0&103.0
c1coc(-c2nnc(SCCc3ccncc3)o2)c1	i	1	89.0
O=S(=O)(c1ccc(OCCSc2ccc3c(c2)OCCO3)cc1)N1CCOCC1	i	0.96	92.0
CN1CCC2(CC1)NC(=O)N(CN1CCN(c3ccc(F)cc3)CC1)C2=O	i	0.99	104.0
O=C(c1ccc(N2CCCC2=O)cc1)c1cc2cc(Br)ccc2o1	i	0.98	98.0
CCn1cc(NS(=O)(=O)c2c(C)c(C)c(C)c(C)c2C)cn1	i	0.87	77.0
COc1cc2ncnc(Nc3ccc(F)c(Cl)c3)c2cc1OCCCN1CCOCC1	i	/	/	total CFTR fold 25 µM=0.8&0.83;total CFTR viability 25 µM=77.0&68.0
O=[N+]([O-])c1cc(Cl)ccc1S(=O)(=O)N(CC1CCOC1)C1CC1 (centres undefined)	i	0.96	71.0
CCCC(=O)O[C@]1(C(=O)CO)CCC2[C@@H]3CCC4=CC(=O)CC[C@]4(C)C3[C@@H](O)C[C@@]21C (some centres undefined)	i	/	/	total CFTR fold 25 µM=0.8;total CFTR viability 25 µM=64.0
Clc1ccc(OCCNc2ccc3nnnn3n2)cc1	i	1.08	107.0
Clc1ccc(C(c2ccccc2Cl)C(Cl)Cl)cc1 (centres undefined)	i	/	/	total CFTR fold 25 µM=1.12;total CFTR viability 25 µM=76.0
CC(C)C(Oc1ccc(Br)cc1)C(=O)O (centres undefined)	i	1.18	92.0
C=CCNS(=O)(=O)Cc1ccc(C#N)cc1	i	1.25	92.0
CCc1cc(SCC(C)C)n2c(nc3ccccc32)c1C#N	i	1	102.0
CN(C)CCOC(c1ccccc1)c1ccccc1	i	/	/	total CFTR fold 25 µM=1.08&1.06&1.12;total CFTR viability 25 µM=89.0&86.0&87.0
CC(C)CCNC(=O)CN1C(=O)NC2(CCCCCC2)C1=O	i	0.97	90.0
CC1(C)CC2CC(C)(CN2C(=O)CSc2nn3c(=O)c(C(C)(C)C)nnc3s2)C1 (centres undefined)	i	0.93	100.0
CC(=O)OCC(=O)NCCCOc1cccc(CN2CCCCC2)c1	i	/	/	total CFTR fold 25 µM=0.97&0.98;total CFTR viability 25 µM=79.0&101.0
N[C@@H](Cc1ccc(O)c(O)c1)C(=O)O	i	/	/	total CFTR fold 25 µM=0.92&1.01&1.02;total CFTR viability 25 µM=95.0&109.0&104.0
N#Cc1cnc(SCc2cc(-c3ccccc3)on2)nc1N	i	0.93	112.0
CC(C)CN(CC(C)C)CN1C(=O)NC2(CCC(C)CC2)C1=O (centres undefined)	i	1.04	78.0
O=C(CN1CCN(C(=O)C2CC2)CC1)NC(=O)NC1CCCC1	i	0.98	102.0
COc1cccc(-c2nn(Cc3ccccc3)cc2C2NC(=O)c3ccccc3N2)c1 (centres undefined)	i	0.93	95.0
C=C1C(n2cnc3c(=O)[nH]c(N)nc32)C[C@H](O)[C@H]1CO (some centres undefined)	i	/	/	total CFTR fold 25 µM=1.24;total CFTR viability 25 µM=75.0
CCOc1ccccc1Nc1nnc(SC(C)C)s1	i	0.98	83.0
CCOC(=O)c1c(CCCO)cnc2c(C#N)cnn12	i	1.03	89.0
CC1CN(Cc2ccc(CNC(=O)C3(C)CC3(Cl)Cl)cc2)CC(C)O1 (centres undefined)	i	1.02	90.0
CC(C)C(NC(=O)CCN1C(=O)c2ccccc2N2C(=O)CCC12C)c1nc2ccccc2[nH]1 (centres undefined)	i	1.05	105.0
O=C(c1ccc([N+](=O)[O-])o1)N1CCc2[nH]c3ccc(Br)cc3c2C1	i	1.02	76.0
Cc1cc(/C(O)=C2\C(=O)C(=O)N(CCCN(C)C)C2c2ccc(O)cc2)ccc1OCC(C)C (centres undefined)	i	1.04	94.0
O=C(COC(=O)c1ccc(C2SCCS2)cc1)c1ccc2c(c1)CCC2	i	1.09	97.0
c1cnc2nc(SCCC34CC5CC(CC(C5)C3)C4)nn2c1	i	1	98.0
CN1C(=O)C(=O)N(CN2CCN(c3oc(C4CC4)nc3C#N)CC2)C1=O	i	0.98	99.0
COC(=O)c1c(C)[nH]c(C(=O)OCC(=O)NC(C)C(C)C)c1C (centres undefined)	i	0.88	90.0
CCOc1ccc2c(c1)NC(=O)C2=O	i	1.11	101.0
CCCN(CC1CC1)C(=O)c1sc2nc(C3CC3)nc(C)c2c1C	i	0.94	81.0
CCCCn1c(N)c(N(CCC)C(=O)C2CC=CCC2)c(=O)[nH]c1=O (centres undefined)	i	0.96	107.0
CON(C)Cc1cc2c(cc1O)OCO2	i	0.97	99.0
O=C1c2ccccc2NC(c2cn[nH]c2-c2ccc(Cl)cc2)N1C1CCCC1 (centres undefined)	i	1.06	96.0
O=S(=O)(c1ccc(OCCOc2ccc(F)c(F)c2)cc1)N1CCOCC1	i	1.02	108.0
Clc1ccc2nsnc2c1NC1=NCCN1	i	/	/	total CFTR fold 25 µM=0.99;total CFTR viability 25 µM=100.0
CN1C(C(=O)Nc2ccccn2)=C(O)c2sccc2S1(=O)=O	i	/	/	total CFTR fold 25 µM=1.07&1.02;total CFTR viability 25 µM=88.0&99.0
C=CCn1c(C)nnc1SCCC(N)=O	i	1.07	86.0
N#Cc1ccccc1Cn1cccc(C(F)(F)F)c1=O	i	1.08	108.0
COc1ccc(CSc2nnc3ccccn23)cc1Br	i	0.96	93.0
c1cncc(-c2nnc(SCc3noc(-c4ccco4)n3)o2)c1	i	1.03	102.0
COc1cccc(-c2nnn(-c3ncnc4sc5c(c34)CCC5)n2)c1	i	1.04	92.0
CCCn1c(SCC(=O)N2CCNC2=O)n[nH]c1=O	i	1.11	110.0
Cc1ccc(C(=O)CSc2nnc(CC3CCS(=O)(=O)C3)n2C)s1 (centres undefined)	i	1.02	92.0
CC[N+](CC)(CC)CCOc1cccc(OCC[N+](CC)(CC)CC)c1OCC[N+](CC)(CC)CC	i	/	/	total CFTR fold 25 µM=1.11&1.06&0.99;total CFTR viability 25 µM=88.0&93.0&101.0
NCCCNc1ncccn1	i	1.18	100.0
Cc1nc(NCC(=O)N2CCCC2)c2c(-c3cccs3)csc2n1	i	1.04	98.0
c1ccc(-n2nnnc2CSc2nnc(-c3cccnc3)o2)cc1	i	1	84.0

Structures from the list above with a CF3 group (2):
SMILES	total CFTR	total CFTR fold 10 ug/mL	total CFTR viability 10 ug/mL	others
OCc1c(OCC(F)(F)F)nc2sccn12	i	1.04	92.0
N#Cc1ccccc1Cn1cccc(C(F)(F)F)c1=O	i	1.08	108.0

Random excerpt: 6 entries already listed, in no set order.
SMILES	total CFTR	total CFTR fold 10 ug/mL	total CFTR viability 10 ug/mL	others
Cc1nc(NCC(=O)N2CCCC2)c2c(-c3cccs3)csc2n1	i	1.04	98.0
CC[N+](CC)(CC)CCOc1cccc(OCC[N+](CC)(CC)CC)c1OCC[N+](CC)(CC)CC	i	/	/	total CFTR fold 25 µM=1.11&1.06&0.99;total CFTR viability 25 µM=88.0&93.0&101.0
O=C1c2ccccc2NC(c2cn[nH]c2-c2ccc(Cl)cc2)N1C1CCCC1 (centres undefined)	i	1.06	96.0
CCCn1c(SCC(=O)N2CCNC2=O)n[nH]c1=O	i	1.11	110.0
Clc1ccc2nsnc2c1NC1=NCCN1	i	/	/	total CFTR fold 25 µM=0.99;total CFTR viability 25 µM=100.0
c1cncc(-c2nnc(SCc3noc(-c4ccco4)n3)o2)c1	i	1.03	102.0

Next section.
SMILES	total CFTR	total CFTR fold 10 ug/mL	total CFTR viability 10 ug/mL	others
O=C(Nc1ccc(Br)cc1F)NC1CCCC1	i	0.95	65.0
CCCn1c(N)c(N(CCOC)C(=O)C(F)(F)F)c(=O)n(CC(=O)NC(=O)NCC)c1=O	i	1.04	90.0
O=C(CC1C=CCC1)NC1CCCc2ccccc21 (centres undefined)	i	1.01	92.0
CCn1c(Sc2ccc3nnnn3n2)nnc1-c1ccc(Cl)cc1	i	0.73	79.0
CC(C)(C)c1ccc(Cn2c(-c3cscn3)nc3ccccc32)cc1	i	0.99	77.0
CC(C)CC(CNC(=O)c1cnn(C)c1-n1cccc1)N1CCOCC1 (centres undefined)	i	0.93	90.0
Cc1nc(C2(NC(=O)CN3C(=O)N(C)C4(CCCCC4)C3=O)CCCCC2)no1	i	0.92	78.0
CC1CCc2cc(F)cc3c(=O)c(C(=O)O)cn1c23 (centres undefined)	i	/	/	total CFTR fold 25 µM=1.02;total CFTR viability 25 µM=80.0
O=C(O)CNC(=O)NC1CC1	i	0.93	94.0
CC(=O)c1c(C)[nH]c(C(=O)CSc2nccc(C(F)(F)F)n2)c1C	i	0.99	89.0
COc1ccc(S(=O)(=O)N2CCCCCC2)cc1NS(=O)(=O)c1ccc2c(c1)OCCCO2	i	1	95.0
CN(Cc1ccc(Cl)c(Cl)c1)CN1C(=O)NC(C)(C2CC2)C1=O (centres undefined)	i	0.86	98.0
CC1(c2cc(F)ccc2F)NC(=O)N(Cc2ccc(F)cc2)C1=O (centres undefined)	i	0.91	83.0
Cc1cc(-c2nnco2)ccc1N	i	1.16	105.0
CCCCN1C[C@H](O)[C@@H](O)[C@H](O)[C@H]1CO	i	/	/	total CFTR fold 25 µM=1.09;total CFTR viability 25 µM=105.0
Nc1ccc(C(=O)O)cc1	i	/	/	total CFTR fold 25 µM=1.04;total CFTR viability 25 µM=89.0
COc1ccc2c(Cn3nnc(-c4ccc(Br)cc4)n3)cc(=O)oc2c1	i	0.99	97.0
Cc1ccc(CN(C)CN2C(=O)NC(CC(C)C)C2=O)cc1 (centres undefined)	i	1.04	101.0
O=S(=O)(C1=Cc2ccccc2CC1)N1CCOC2CCCCC21 (centres undefined)	i	1.15	82.0
Cc1ccc(C)c(OCC(O)CNC2CCCCCCC2)c1C (centres undefined)	i	0.97	82.0
Cc1oc(-n2cccc2)c(C#N)c1C(=O)NC(C)C	i	1.15	92.0
Cc1nnc(CSc2nc(-c3ccccc3)c(-c3ccccc3)[nH]2)o1	i	0.97	93.0
Cn1c(CN2CCN(S(=O)(=O)N3CCCCCC3)CC2)cc(=O)n(C)c1=O	i	1.07	89.0
CN(Cc1nc(-c2cccs2)no1)CC12CC3CC(CC(C3)C1)C2	i	1.02	88.0
O=[N+]([O-])c1cn(C(F)F)cn1	i	1.09	103.0
Cc1cc(C(=O)CN2C(=O)NC3(CCCCCC3)C2=O)c(C)n1Cc1cccs1	i	0.99	78.0
CCCCN1C(=O)C(=O)N(CN2CCN(c3ccc(F)cc3)CC2)C1=O	i	0.98	95.0
O=C(CN1C(=O)C2CC=CCC2C1=O)NC(=O)NCC(F)(F)F (centres undefined)	i	0.99	112.0
O=C(CC1C=CCC1)NCCNc1ncnc2sccc12 (centres undefined)	i	0.86	81.0
COc1ccccc1CN1C(=O)C(=O)N(C23CC4CC(CC(C4)C2)C3)C1=O	i	0.86	92.0
CC(=O)c1c(C)[nH]c(C(=O)OCC(=O)NC(C)C(C)C)c1C (centres undefined)	i	0.85	96.0
Cc1cc(C)c(S(=O)(=O)N2CCc3sccc3C2)c(C)c1	2.93	0.95	52.0
CN(CCOc1ccccc1)Cn1ncn(-c2ccccc2)c1=S	i	1.06	97.0
NC(=O)c1ccsc1NC(=O)COC(=O)c1cccs1	i	0.97	94.0
Cc1c(C)c(C)c(C(=O)OCC(=O)N(CC(C)C)C2CCS(=O)(=O)C2)c(C)c1C (centres undefined)	i	0.9	105.0
CC(C)(C)C(=O)/C=c1/s/c(=C/c2cccs2)c(=O)n1CC(=O)NC12CC3CC(CC(C3)C1)C2	i	1.03	93.0
O=C1C(O)=C(c2ccc3ccccc3n2)C(c2ccc(Cl)cc2)N1Cc1ccc(Cl)cc1 (centres undefined)	i	1.03	95.0
NS(=O)(=O)c1ccc2c(c1)CCN2Cc1ccc(Cl)cc1Cl	i	0.84	73.0
O=S(=O)(Nc1ccc(Cl)c(S(=O)(=O)N2CCOCC2)c1)c1ccc2ccccc2c1	i	1.11	93.0
CC(NC(=O)Cn1nnn(-c2cccs2)c1=O)C1CC1 (centres undefined)	i	1.07	104.0
O=S(=O)(c1ccccc1N1CCN(c2ccccc2F)CC1)C(F)(F)F	i	0.97	99.0
CCN1C(=O)C(=O)N(Cc2ccccc2OC(F)F)C1=O	i	1.05	87.0
O=[N+]([O-])c1ccc2nc(-c3ccc(Br)s3)cc(-c3ccccc3)c2c1	i	0.91	85.0
O=C(c1cc2cc(Br)ccc2o1)c1ccc(Cl)cc1Cl	i	0.96	88.0
